Source: PubChem BioAssay (Southern Research Institute)
Mtb H37Rv: Mycobacterium tuberculosis H37Rv growth inhibition, cell based, confirmatory dose response (AID 1949) | 1.6% of 100,000 active | most inactive calls were filed without a number and no value below 0 was filed | inhibition, % at 10 µg/mL; hits with a dose series show IC50 in µg/mL;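 active means confirmed in a dose series; inconclusive means about 50% or more but not retested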;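 further: bacteria grown 7 days with compound before Alamar blue readout; 0% = untreated bacteria and 100% = reference antibiotic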
An asterisk follows results filed as active; i = inactive; ? = inconclusive. A portion of the library; rates above refer to the full screens.

SMILES	Mtb H37Rv
O=C(Nc1cccc(Cl)c1)N1CCN(c2ccccc2F)CC1	3.0%
CCCOc1ccc(Cn2cnc3ccccc32)cc1	0.2%
CCCCOc1ccc(C(=O)N2c3ccccc3CC2C)cc1 (stereo unspecified)	15.3%
CCOc1ccc(C2NC(=O)NC(C)=C2C(=O)Nc2ccc(Cl)cc2)cc1 (stereo unspecified)	i
CC(=O)Nc1ccccc1NC(=O)C(C)Oc1ccc(Br)cc1 (stereo unspecified)	i
CCOc1ccccc1NC(=O)Nc1ccc(C(=O)O)cc1	i
O=C1C2C3C=CC(C3)C2C(=O)N1c1n[nH]c(-c2ccccc2)n1 (stereo unspecified)	i
COc1cccc(NC(=O)CN(c2ccccc2)S(=O)(=O)c2ccc(OC)c(OC)c2)c1	i
CS(=O)(=O)N1CCN(C2Cc3ccccc3C2)CC1	0.1%
COc1ccc(C(=O)NCC(=O)OCc2ccc(Br)cc2)cc1	i
Cc1cccc(OCCNC(=O)CCc2ccccc2)c1	i
CCOc1ccc(NC(=O)NS(=O)(=O)c2ccc(C)cc2)cc1	11.5%
COc1ccc(S(=O)(=O)NCCSC(C)(C)C)cc1Cl	i
COC(=O)c1ccc(NC(=O)CSc2nnnn2-c2ccc(C)c(C)c2)cc1	3.4%
CCOc1ccccc1C(=O)Nc1cc(=O)n(C)c(=O)n1C	i
COc1cc(S(=O)(=O)N2CCN(Cc3ccccc3)CC2)ccc1Br	i
CCN1C2=C(C(=O)CCC2)C(c2ccc(OC)c(C(=O)O)c2)C2=C1CCCC2=O	i
CCOc1ccccc1NC(=O)CSCc1c(Cl)cccc1Cl	i
CCOCCCNC(=O)C1CCN(S(C)(=O)=O)CC1	i
N#Cc1cn(-c2ccccc2)nc1-c1ccco1	i
COc1ccc(S(=O)(=O)N(CC(=O)N2CCc3ccccc3C2)c2ccccc2)cc1	i
Cn1c(CC(=O)Nc2ccccc2)nnc1SCC(=O)Nc1cc(Cl)ccc1Cl	1.3%
COc1ccc(C(=O)Nc2cccc(C(=O)N3CCN(C)CC3)c2)cc1	i
COc1ccc(CCC(=O)N2CCN(C3CCCCC3)CC2)cc1	i
CCC(C)NCCOc1cccc(Br)c1 (stereo unspecified)	0.1%
COc1ccc(NC(=O)Nc2ccc3ccccc3c2)cc1OC	i
O=C(NCCN1CCCC1)c1ccccc1I	i
S=C(NC1CCCCC1)N1CCN(c2ccc3c(c2)OCO3)CC1	i
CC(C)NS(=O)(=O)c1ccc(N)cc1	i
C=CCSc1nc(N)c(C(=O)Nc2cccc(F)c2)cc1C#N	2.1%
Cc1cc(C)c(S(=O)(=O)NCCN2CCN(S(=O)(=O)c3c(C)cc(C)cc3C)CC2)c(C)c1	i
O=C(c1ccc(-c2ccccc2)cc1)n1cccn1	i
CCC1(CC)Cc2ccccc2C(N2CCOCC2)=N1	i
CCOC(=O)C1CCCN(C(=S)NC2CCCC2)C1 (stereo unspecified)	i
Cc1onc(-c2c(F)cccc2Cl)c1C(=O)NC(=S)NCC(=O)c1ccccc1	i
Nc1cccc2c(S(=O)(=O)O)cccc12	3.6%
CC(=O)Oc1ccc(C(=O)Nc2ccncc2)cc1	i
CCc1cccc(CC)c1NC(=O)c1ccc(CN2CCc3ccccc3C2)cc1	i
NC(=O)c1ccccc1Nc1cccc(C(F)(F)F)c1	4.2%
COc1ccccc1NC(=O)C1=C(C)NC(=S)NC1c1ccccc1OCC(=O)O (stereo unspecified)	i
Cc1ccc(S(=O)(=O)N(Cc2ccc(F)cc2)Cc2ccco2)cc1	i
CCOc1ccc(N2CC(C(=O)NCCCOC(C)C)CC2=O)cc1 (stereo unspecified)	i
O=C(Cc1c(F)cccc1Cl)NCc1ccco1	i
CCOC(=O)c1c(NC(=S)Nc2cccc(S(=O)(=O)N3CCOCC3)c2)sc2c1CCCCCC2	i
COc1ccc(CCN2C(=O)CC(Sc3ccccc3C(=O)O)C2=O)cc1OC (stereo unspecified)	i
Fc1ccc(N2CCN(C(=S)NCC3CCCO3)CC2)cc1 (stereo unspecified)	i
COc1ccccc1NS(=O)(=O)c1cc(C(=O)Nc2cc([N+](=O)[O-])ccc2C)c(Cl)cc1Cl	4.2%
CCc1ccc(OCC(=O)NS(=O)(=O)c2ccccc2)cc1	i
O=C(Nc1cccc(OCc2ccccc2)c1)c1sc2ccccc2c1Cl	i
Cc1cc2c(cc1C)NC(c1cccnc1)C1=C(CC(C)(C)CC1=O)N2 (stereo unspecified)	i
O=C(CSc1nnc(-c2ccccc2)n1C1CCCCC1)Nc1ccccc1	i
Cc1ccc(SCCNC(=O)c2ccccc2N(C)S(=O)(=O)c2ccccc2)cc1	1.6%
FC(F)(F)c1ccccc1-n1c(-c2ccco2)n[nH]c1=S	i
Cc1cccc(OC(=O)C2CCCCC2)c1C	i
CC(C)c1ccc(C(=O)Nc2ccccc2C#N)cc1	5.3%
CCCC(=O)Nc1ccccc1NC(=O)CSc1ccc(C)cc1	0.3%
Cc1ccc(-c2csc3ncnc(SCC(=O)Nc4ccccc4C(C)C)c23)cc1	i
O=C(CSc1cc(Cl)ccc1Cl)Nc1cccc(C(F)(F)F)c1	3.7%
COCCNC(=S)N1CCN(c2ccc(F)cc2)CC1	i
COc1ccccc1CNC(=O)c1ccccc1N(C)S(C)(=O)=O	i
New compounds follow.
SMILES	Mtb H37Rv
Cc1nn(C(=O)N2CCOCC2)c(C)c1Cl	2.7%
Cc1cccc(C)c1OCc1nnc(SCC(=O)Nc2ccc(Cl)c(Br)c2)o1	i
O=C(CCc1ccccc1)Nc1nnc(SCC(=O)c2ccc3c(c2)Cc2ccccc2-3)s1	i
CN(C)CCNS(=O)(=O)c1ccc2ccccc2c1	i
COc1ccc(NC(=O)Cn2nnc(-c3ccccc3F)n2)cc1	i
COc1cc(CN2CCC(C(=O)N3CCN(Cc4ccccc4)CC3)CC2)cc(OC)c1OC	3.4%
Cc1nn(Cc2ccc(C(=O)NC3CCCCC3)o2)c(C)c1Br	24.8%
CCCCOc1ccc(C(=O)NC(=S)Nc2ccc(NC(=S)NC(=O)CC)cc2)cc1	i
Cc1cc(OCCCCN2CCCCC2)ccc1C(C)C	i
CC1(C)CC(NC(=O)NC2CC2)CC(C)(CNC(=O)NC2CC2)C1 (stereo unspecified)	i
Cc1ccccc1C(=O)Nc1ccc(OC(=O)c2ccccc2C)cc1	i
O=c1nc(C(F)(F)F)nc2ccccn12	i
Cc1cc(C)nc(/N=C(\NC(=O)C(Cc2ccccc2)N2C(=O)C3CCCCC3C2=O)Nc2ccc(F)c(Cl)c2)n1 (stereo unspecified)	i
CC(C)OCCCNC(=O)C(=O)NCc1ccc(C(C)C)cc1	i
CCc1ccc(N2CCN(S(=O)(=O)c3ccc(Cl)cc3OC)CC2)cc1	0.6%
O=C1CCCC1c1cc(NS(=O)(=O)c2ccccc2)ccc1O (stereo unspecified)	i
c1ccc(CN2CCC(N3CCN(Cc4ccco4)CC3)CC2)cc1	i
CCOC(=O)C1CCCN(Cc2ccc3c(c2)OCO3)C1 (stereo unspecified)	i
CCOc1ccccc1OCCN1CCN(c2ccccc2OC)CC1	i
O=C(CSc1ncnc2scc(-c3ccccc3)c12)Nc1ccccc1Cl	2.5%
O=C(O)c1ccc2c(c1)C(=O)N(CCCN1CCOCC1)C2=O	i
CS(=O)(=O)N(CC(=O)O)c1cc(Cl)c(Cl)cc1Cl	i
Cc1cccc(S(=O)(=O)N2CCCCCC2)c1	i
Clc1ccc(OCCCCN2CCOCC2)c(Br)c1	i
Cc1nc(SCc2cccc(C(=O)O)c2)nc2c1CCCC2	i
CCN(CC)S(=O)(=O)c1cc(C(=O)OCc2ccccc2)ccc1Br	i
COC(=O)c1ccc(C(=O)OC)c(NC(=O)c2cc(-c3ccc4c(c3)OCO4)nc3ccccc23)c1	3.6%
Cc1ccc(OCC(=O)c2ccc(Br)cc2)cc1C	47.7µg/mL*
CC(=O)Nc1cccc(OCc2c(F)cccc2Cl)c1	i
O=C(NCC1CCCO1)c1ccc(NC(=O)c2cc(F)c(F)cc2Cl)cc1 (stereo unspecified)	i
COc1ccc(OC)c(Nc2ncnc(N)c2[N+](=O)[O-])c1	4.2%
COCCCNc1c(F)c(F)c(/C=C/CN2CCOCC2)c(F)c1F	i
CCN(C(=O)Cn1c([N+](=O)[O-])cnc1C)c1ccccc1	i
COc1ccc(-c2noc(COc3ccccc3C)n2)cc1OC	i
CCOC(=O)c1c(NC(=O)CSc2nnc(-c3ccc(OC)cc3)o2)sc2c1CCCC2	i
COc1ccc(N(CC(=O)Nc2ccccc2OC)S(C)(=O)=O)cc1	i
CC(=O)c1ccc(NC(=O)CN(c2c(C)cccc2C)S(C)(=O)=O)cc1	i
Cc1cc(C)nc(N(C#N)CC(=O)c2ccc(Br)cc2)n1	i
c1ccc(CCSCc2nc3ccccc3[nH]2)cc1	i
CCCc1cc(=O)[nH]c(SCc2nc(-c3ccccc3)no2)n1	5.7%
COc1ccc(-c2noc(CCC3CCCCC3)n2)cc1	i
O=C(NC(=S)N1CCN(C/C=C/c2ccccc2)CC1)c1ccco1	7.1%
CCOC(=O)c1c(CN2CCOCC2)n(C)c2ccc(O)cc12	i
CC(C)(C)c1ccc(OCC(=O)Nc2ccccc2C(=O)NCc2ccccc2)cc1	4.5%
COc1ccc(NC(=O)Nc2ccc(-c3nc4ccc(C)cc4s3)cc2)cc1OC	i

Taken from above (18 entries):
SMILES	Mtb H37Rv
Cc1nc(SCc2cccc(C(=O)O)c2)nc2c1CCCC2	i
CCN(CC)S(=O)(=O)c1cc(C(=O)OCc2ccccc2)ccc1Br	i
COC(=O)c1ccc(C(=O)OC)c(NC(=O)c2cc(-c3ccc4c(c3)OCO4)nc3ccccc23)c1	3.6%
Cc1ccc(OCC(=O)c2ccc(Br)cc2)cc1C	47.7µg/mL*
CC(=O)Nc1cccc(OCc2c(F)cccc2Cl)c1	i
O=C(NCC1CCCO1)c1ccc(NC(=O)c2cc(F)c(F)cc2Cl)cc1 (stereo unspecified)	i
COc1ccc(OC)c(Nc2ncnc(N)c2[N+](=O)[O-])c1	4.2%
COCCCNc1c(F)c(F)c(/C=C/CN2CCOCC2)c(F)c1F	i
CCN(C(=O)Cn1c([N+](=O)[O-])cnc1C)c1ccccc1	i
COc1ccc(-c2noc(COc3ccccc3C)n2)cc1OC	i
CCOC(=O)c1c(NC(=O)CSc2nnc(-c3ccc(OC)cc3)o2)sc2c1CCCC2	i
COc1ccc(N(CC(=O)Nc2ccccc2OC)S(C)(=O)=O)cc1	i
CC(=O)c1ccc(NC(=O)CN(c2c(C)cccc2C)S(C)(=O)=O)cc1	i
Cc1cc(C)nc(N(C#N)CC(=O)c2ccc(Br)cc2)n1	i
c1ccc(CCSCc2nc3ccccc3[nH]2)cc1	i
CCCc1cc(=O)[nH]c(SCc2nc(-c3ccccc3)no2)n1	5.7%
COc1ccc(-c2noc(CCC3CCCCC3)n2)cc1	i
O=C(NC(=S)N1CCN(C/C=C/c2ccccc2)CC1)c1ccco1	7.1%

Further compounds follow.
SMILES	Mtb H37Rv
Cn1c(=O)n(CC(=O)Nc2cccnc2)c2ccccc21	i
COCCNC(=O)C1CCN(S(=O)(=O)c2ccc(Br)cc2)CC1	i
CCc1ccccc1NC(=O)c1ccc(CSCc2ccccc2)cc1	i
CCc1c(C)c2ccc(O)c(CN3CCCCC3)c2oc1=O	i
COc1ccc(OCCCC(=O)Nc2ccc([N+](=O)[O-])cc2OC)cc1	i
CC(C)(C)c1ccc(C(=O)Oc2ccccc2)cc1	i
O=C(O)C1C2CCC(C2)C1C(=O)NCc1cccs1 (stereo unspecified)	i
Cc1cc(=O)oc2cc(NC(=S)Nc3ccc(Br)cn3)ccc12	i
O=C(Nc1ccc(Br)cc1F)C(Cl)(Cl)Cl	i
CSc1nnc(NC(=O)c2ccc(C)c(S(=O)(=O)N3CCCCCC3)c2)s1	i
Cc1cc(C)cc(C(=O)Nc2ccc(N3CCCC3)c(Cl)c2)c1	28.6%
COc1ccc(C(=O)Nc2ccc3nc(SCC(=O)Nc4ccc([N+](=O)[O-])cc4)sc3c2)cc1OC	19.8%
Cc1cc(NC(=O)COc2ccc(Cl)cc2)c(C)cc1I	i
COC(=O)c1cc(NC(=O)C(C)(C)Oc2ccc(Cl)cc2)cc(C(=O)OC)c1	1.5%
CCOc1ccc(NS(=O)(=O)c2ccc(NS(=O)(=O)c3ccc(F)cc3)cc2)cc1	i
CCOC(=O)C(C(=O)O)C1CCCCC1 (stereo unspecified)	i
Cc1ccc(-c2nc3n(n2)C(=O)CC(c2cccc4ccccc24)S3)cc1 (stereo unspecified)	i
COc1ccc(C2=NN(C(=S)Nc3ccccc3)C(c3cccc([N+](=O)[O-])c3)C2)cc1 (stereo unspecified)	5.5%
Cc1nc(NC(=O)C(C)c2ccccc2)sc1C(=O)N(C)C (stereo unspecified)	i
Cc1ccc(NC(=O)C(=O)Nc2ccc(C)cn2)nc1	i
Cc1ccccc1C(=O)NC(=S)NCCC1=CCCCC1	8.8%
Cc1ccc2c(Cl)c(C(=O)N3CCN(c4cccc(C)c4C)CC3)sc2c1	i
COCCNC(=O)Nc1ccc(C)cc1	i
CCOC(=O)c1cccc(NC(=O)CSc2nnc(-c3cc4cccc(OC)c4o3)n2C)c1	4.0%
CC(O)c1nc2ccccc2n1Cc1ccc(Cl)cc1Cl (stereo unspecified)	2.2%
O=C1OC(c2ccccc2F)=N/C1=C\c1ccc(OC(=O)c2ccccc2Cl)cc1	i
c1nc(NCC2CCCO2)c2sc3nc(N4CCCCC4)c4c(c3c2n1)CCCC4 (stereo unspecified)	?
CCOc1ccc(N(CC(=O)O)S(=O)(=O)c2ccccc2)cc1	i
CCNC(=S)Nc1c(C)cccc1C	i
O=c1[nH]c(/C=C\c2cccc(OCc3ccccc3F)c2)c([N+](=O)[O-])c(=O)[nH]1	i
O=C(Nc1ccc(OC(F)(F)F)cc1)c1ccc(COc2c(F)c(F)cc(F)c2F)cc1	i
Cc1ccc(S(=O)(=O)N(CC(=O)Nc2ccccc2C(=O)N2CCCC2)c2ccccc2)cc1	i
COc1ccc(C)cc1NC(=O)Nc1cc(OC)c(OC)c(OC)c1	i
CC(=O)c1ccc(NC(=O)c2ccccc2)cc1	i
Cc1c(O)ccc(-c2[nH]ncc2-c2nncn2-c2ccccc2)c1O	i
